Arbovirus anti: antivirals against arbovirus infection. arbovirus infection cell-based antiviral screen. inhibition, % at 10 µM. AID 1251. 200,000 compounds, 0.37% hits;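 active means inhibition from about 30%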;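 further: bluetongue infection of BSR cells; cell survival read as ATP light after 72 h; 0% = infected wells without compound and 100% = uninfected wells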
RecA splice inh: inhibitors of M. tuberculosis RecA intein splicing; AID 2221; P9WHJ3; inhibition, %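 (about 9 µM by stock and volumes)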; cell-free RecA intein splicing, fluorescence; 290,000 compounds, 0.75% hits; in the data active means inhibition above about 30%; inconclusive means no clear call, values can overlap the other calls;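 further: 0% = vehicle wells and 100% = reference inhibitor control wells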
Target sequence (P9WHJ3 whole entry, looked up, canonical isoform): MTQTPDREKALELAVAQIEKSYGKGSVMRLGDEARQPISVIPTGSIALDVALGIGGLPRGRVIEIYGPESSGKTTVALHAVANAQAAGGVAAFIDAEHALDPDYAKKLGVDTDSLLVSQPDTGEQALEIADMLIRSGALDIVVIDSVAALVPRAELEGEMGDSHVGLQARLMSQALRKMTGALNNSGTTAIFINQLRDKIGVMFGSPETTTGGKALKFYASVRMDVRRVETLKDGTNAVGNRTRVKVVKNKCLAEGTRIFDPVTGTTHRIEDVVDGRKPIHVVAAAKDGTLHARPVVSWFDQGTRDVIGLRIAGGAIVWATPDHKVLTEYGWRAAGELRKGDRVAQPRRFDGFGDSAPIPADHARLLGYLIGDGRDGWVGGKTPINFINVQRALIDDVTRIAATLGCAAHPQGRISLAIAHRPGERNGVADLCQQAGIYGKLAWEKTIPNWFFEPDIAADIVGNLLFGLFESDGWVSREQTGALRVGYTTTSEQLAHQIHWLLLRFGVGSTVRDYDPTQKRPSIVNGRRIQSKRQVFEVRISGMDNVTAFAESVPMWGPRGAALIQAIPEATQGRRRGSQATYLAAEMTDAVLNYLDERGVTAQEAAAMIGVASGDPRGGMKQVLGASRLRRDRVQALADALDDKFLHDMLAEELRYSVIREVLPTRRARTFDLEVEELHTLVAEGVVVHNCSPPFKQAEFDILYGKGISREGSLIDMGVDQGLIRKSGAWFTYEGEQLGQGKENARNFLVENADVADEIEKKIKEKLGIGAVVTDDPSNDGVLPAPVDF
Mtb H37Rv: M. tuberculosis H37Rv growth inhibitors, H37Rv strain (AID 1626) | M. tuberculosis H37Rv growth inhibition; higher % means a stronger effect | one-dose inhibition, % at 10 µM; IC50 in µM for titrated hits | 220,000 compounds, 0.95% hits;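 active means confirmed in a dose series; inconclusive means inhibition above 80% but not taken into the dose series; inactive means below 80% or under 30% at every dose of the series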;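 further: bacteria incubated seven days before Alamar blue readout; 0% = bacteria only wells and 100% = bacteria with antibiotic wells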
Mtb bLac sens: beta-lactam sensitization of Mtb H37Rv. inhibition, % at 25 µM. 330,000 compounds, 0.27% hits. M. tuberculosis H37Rv growth with meropenem, percent inhibition; hits of this screen are not shown here;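 active means about 74% or more and at least 40 points above the plate without the antibiotic, then above 30% in a dose series; inconclusive means first-round hits that could not be retested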;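 further: growth measured after seven days incubation then overnight dye step; 0% = bacteria only wells and 100% = bacteria with antibiotic; twin plates without the antibiotic show which effects depend on it; some results filed as inactive read as strong as hits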
YopH inh: blocks Yersinia enterocolitica YopH tyrosine phosphatase; inhibition, %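 (about 10 µM by stock and volumes)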; fluorescence Ex485/Em525; 140,000 compounds, 0.16% hits;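 active means inhibition of 50% or more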;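 further: controls were vehicle for no effect and minimum signal wells for full effect; inactives centre near -20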
Arbovirus anti repeat: second read-out of Arbovirus anti, no call of its own (marks repeat the call); inhibition, %; measured here: 10K subset replicate screen; many hits read low in the repeat;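 first of two repeat runs on a subset; 0% = infected and 100% = uninfected wells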
* hit, by the source's call; ? = inconclusive; nt = no result given.

SMILES	Arbovirus anti	RecA splice inh	Mtb H37Rv	Mtb bLac sens	YopH inh	others
Cc1ccc(O)c(NC(=O)/C=C/C(=O)O)c1	2	-4.7	2%	0	nt
N#Cc1ccc(Oc2ccc(NC(=O)C3CC=CCC3C(=O)O)cc2)cc1 (centres undefined)	-5	-1.5	-10%	-3	nt
CSc1ncccc1C(=O)NNc1cc(Cl)ccc1Cl	nt	-2.7	nt	98	nt
O=C(C1CCCN(Cc2ccccc2F)C1)N1CCCCC1 (centres undefined)	nt	-1.5	nt	7	nt
Cc1cc(/C=C2\SC(=S)N(Cc3ccco3)C2=O)c(C)n1-c1ccccc1	-10	3.1	-2%	35	-11
CCSc1nnc(-c2cccnc2)n1Cc1ccco1	3	4.3	-7%	-5	-126
COc1cc(Cl)ccc1S(=O)(=O)n1nc(C)cc1C	0	1.7	-5%	-3	-33
Cc1[nH]c2ccccc2c1C(=O)C(=O)NCCOc1ccccc1	-5	-3.7	2%	-5	nt
N#CCCN(Cc1cccs1)C(=O)c1ccc(Cl)cc1	nt	2.2	-12%	-10	nt
Nn1c(SCc2cccc3ccccc23)nnc1-c1ccco1	-9	-2.0	2%	-17	-40
O=C(CSc1nnc(-c2ccccc2F)o1)N1CCCC1	nt	-1.7	nt	6	nt
CC(C)c1cc(NC(=O)CCl)on1	17	14	14µM*	100	nt
NC(=O)C(c1ccc(Cl)cc1)c1ccc(Sc2ccccc2)nn1 (centres undefined)	-5	4.6	-11%	-6	-28
CCN(CC)S(=O)(=O)c1cccc(NC(=O)C2SC(=Nc3ccc(C)cc3C)C(C(=O)NCC3CCCO3)=C2N)c1 (centres undefined)	-40	1.3	-2%	17	-22
Cn1ncc(Cl)c1C(=O)NCC1CCCO1 (centres undefined)	nt	0.8	nt	11	nt
CCc1nc2c(cnn2-c2ccc(Cl)cc2)c(=O)n1-c1ccc(OC)cc1	0	3.2	-2%	-8	-20
COc1ccc(CCNC(=O)CSc2ccc(-c3ccncc3)nn2)cc1	0	-4.0	3%	-5	nt
Cc1ccccc1OCCN=Cc1c(O)n(C)c(=O)n(C)c1=O	-17	1.2	-1%	-10	4
COC(=O)c1c(C(=O)OC)c(-c2ccc(C(C)(C)C)cc2)n2c1CS(=O)C2 (centres undefined)	-2	1.8	-1%	-5	nt
CC(C)COC(=O)c1ccc(NC(=O)C2C3C=CC(C3)C2C(=O)O)cc1 (centres undefined)	-4	nt	58%	62	-35
O=C(NCc1ccccn1)C1CN(S(=O)(=O)c2ccccc2)CCN1S(=O)(=O)c1ccccc1 (centres undefined)	1	-1.2	9%	0	nt
Cc1ccc(-n2nnc(-c3cc4ccccc4nc3Cl)n2)cc1	3	1.1	0%	-6	nt
Cc1[nH][nH]c(=O)c1C(c1ccc(N(C)C)c(Br)c1)c1c(C)[nH][nH]c1=O	nt	97*	-11%	-1	nt
COc1ccc(C(=O)CC(=O)c2ccccc2O)cc1OC	-4	-2.2	-2%	2	nt
CCOC(=O)c1sc(NC(=O)c2cccc(S(=O)(=O)N3c4ccccc4CC3C)c2)cc1C (centres undefined)	-20	-1.4	2%	0	-31
Nc1c2c(nc3sc4c(c13)CCCC4)-c1ccccc1CC2	nt	4.5	22%	nt	nt
COc1ccc(C(=O)N/N=C(\C)c2ccc3c(c2)C2C=CCC2C(c2ccccc2)N3)cc1 (centres undefined)	11	nt	10%	1	-17
Cc1ccnc(NS(=O)(=O)c2ccc(NC(=O)Cc3c(F)cccc3Cl)cc2)n1	nt	-2.5	nt	-2	nt
CCCS(=O)(=O)c1c(S(=O)(=O)CCC)c2ccccn2c1C(=O)OC	3	-1.0	3%	1	-10
COCCN(Cc1cc2cc(C)ccc2nc1Cl)C(=O)Nc1ccccc1OC	-5	-0.9	2%	1	nt
O=C(NCCC1=CCCCC1)C1CCN(S(=O)(=O)c2ccc(Br)s2)CC1	-7	3.2	4%	5	-13
c1ccc(-n2nnnc2SCc2ccccn2)cc1	-4	2.6	-5%	-6	3
O=C(Cc1ccc(N(CCCl)CCCl)cc1)NC(Cc1ccc(Cl)cc1)C(=O)O (centres undefined)	nt	1.8	nt	-4	nt
CC1(C)Cc2ccccc2-c2nnc(SCC(=O)Nc3ccc4c(c3)OCO4)n21	4	3.2	-6%	2	-2
O=C1Oc2ccccc2C(=O)/C1=C/N1CCN(c2ccccc2F)CC1	3	0.1	1%	-1	nt
COc1cc2[nH]c(=S)n(Cc3ccco3)c(=O)c2cc1OC	13	2.7	2%	26	-11
NC(=O)CSCc1c(Cl)cccc1Cl	-2	2.1	0%	12	-24
Cc1ccc(S(=O)(=O)N2CCCCC2)cc1NC(=O)Cn1cnnn1	nt	0.8	-3%	2	nt
O=C(NNc1ccccc1)C(=O)NNS(=O)(=O)c1ccc(CCCl)cc1	nt	-4.4	66%	94	nt
CC[C@@]12C(=O)N(c3cccc(Br)c3)C(=O)N1[C@H](c1ccc(OC)cc1)[C@@H]1C(=O)N(C(C)(C)C)C(=O)[C@@H]12	nt	0.2	nt	-2	nt
O=C(NNc1nc2c(F)cccc2s1)C1COc2ccccc2O1 (centres undefined)	23	-4.1	8%	47	nt
COc1ccc(Cl)cc1NC(=O)CSc1nnc(CN2CCOCC2)n1-c1ccc(Cl)cc1	-10	nt	0%	-4	-6
COc1cc(/C=N\Nc2nc(-c3cccs3)c(NC(C)=O)s2)ccc1O	nt	5.6	1%	59	nt
CCN(CC)S(=O)(=O)c1ccc(NC(=O)COC(=O)c2cnc(C)cn2)cc1	11	-0.8	2%	-2	nt
Nc1ccccc1C(=O)OCC(=O)N1CCc2ccccc21	-4	-1.0	nt	nt	-19
COC(=O)c1ccccc1NC(=O)c1cccc(NC(=O)c2ccc(Br)o2)c1C	13	-0.5	11%	-3	-5
CCCCc1ccc(NC(=S)NCCc2ccc(S(N)(=O)=O)cc2)cc1	-6	4.0	?	94	nt
COc1ccc(OCc2nc(N)nc(Nc3ccccc3)n2)cc1	1	16	-2%	0	-13
COc1ccc(C(O)c2cc(OC)ccc2OP(=O)(N(C)C)N(C)C)cc1 (centres undefined)	7	0.3	-3%	-6	-25
COc1ccccc1C(=O)C(O)c1ccccc1OC (centres undefined)	4	-3.5	1%	4	17	Arbovirus anti repeat=0
CC(=O)N1CCSc2ccc(S(=O)(=O)NCCc3ccc(C)cc3)cc21	nt	-0.7	nt	0	nt
CC(=O)NCCNC(=O)[C@H](Cc1ccccc1)NC(=O)c1cccs1	5	-0.7	nt	2	-16
CCOC(=O)C1=C(O)/C(=C/c2ccc(OCC(=O)O)c(OC)c2)SC1=Nc1ccc(OC)cc1	4	1.7	17%	90	-34
CCOc1ccc(N(CC(=O)NN=C2CCCC2)S(C)(=O)=O)cc1	0	-1.9	-2%	-2	nt
O=C(O)CCCNC(=O)Cc1ccccc1	nt	2.1	1%	-8	nt
Cc1cc(NC(=O)c2ccc(Cn3nc(C)c(Br)c3C)o2)no1	-11	-1.7	2%	-3	-44
Cc1ccc(C(=O)NCCCN2CCN(CCCNC(=O)c3ccc(C)cc3)CC2)cc1	nt	-1.5	nt	-3	nt
CSc1ccc(S(=O)(=O)NC(C)c2ccccc2)cc1 (centres undefined)	2	0.4	7%	2	nt
O=C(NCc1ccc2c(c1)OCO2)c1cc2c(s1)CS(=O)(=O)C2	-2	-2.7	1%	8	-21
CCOc1ccccc1/C=C/c1nc2ccccc2[nH]c1=O	nt	-58	nt	3	nt

Next part.
SMILES	Arbovirus anti	RecA splice inh	Mtb H37Rv	Mtb bLac sens	YopH inh	others
COc1ccc(-c2nonc2NC(=O)c2oc3ccc(F)cc3c2C)cc1OC	nt	-1.8	nt	-4	nt
CCOC(=O)Nc1cc(OCC)c(NC(=O)C2CC2)cc1OCC	19	-0.1	-11%	1	-12
C=CCc1ccc2oc(C(=O)OCC)cc(=O)c2c1O	nt	7.9	-3%	5	nt
O=S(=O)(c1ccccc1F)N1CCN(Cc2nc3ccccc3[nH]2)CC1	2	0.2	15%	4	-5
O=C(O)c1ccc(/C=N/N2CCN(c3ccccc3)CC2)cc1	nt	0.5	nt	-1	nt
Cc1ccc(Nc2ccc(N3CCN(c4ccc([N+](=O)[O-])cc4)CC3)nn2)cc1	4	0.3	-1%	6	nt
O=C(c1ccccc1)c1ccc(N2CCOCC2)c(F)c1	-9	1.0	4%	2	-12
CCOc1ccc(Br)cc1S(=O)(=O)Nc1ccc(Cl)c(S(=O)(=O)N(CC)c2ccccc2)c1	-21	9.2	-7%	1	-18
Cc1cc(NC(=O)COC(=O)C2CCCN2C(=O)c2cccs2)no1 (centres undefined)	4	-1.8	4%	-4	-24
COc1ccc(OC)c2c(N3CC(C)OC(C)C3)cc(C(F)(F)F)nc12 (centres undefined)	-2	-1.5	-1%	-5	-35
CCCOc1ccccc1C(=O)NCCCC(=O)O	-5	-0.1	2%	-3	-14
O=C(NNC(=O)c1cccc(S(=O)(=O)N2CCN(c3ccccc3)CC2)c1)c1ccc(Cl)cc1	-27	3.1	-12%	4	-26
Fc1cccc(C2NC(=S)NC3=C2N2CCC3CC2)c1 (centres undefined)	0	-0.6	-2%	-1	0
CC(C)C(NC(=O)C(C)N1C(=O)c2ccccc2C1=O)c1ccccc1 (centres undefined)	nt	1.2	nt	-4	nt
COc1cc(C(=O)Nc2ccc3nc(N4CCN(C)CC4)cc(C)c3c2)cc(OC)c1OC	nt	-0.3	nt	15	nt

Compounds listed so far that contain a cyano group:
SMILES	Arbovirus anti	RecA splice inh	Mtb H37Rv	Mtb bLac sens	YopH inh	others
N#Cc1ccc(Oc2ccc(NC(=O)C3CC=CCC3C(=O)O)cc2)cc1 (centres undefined)	-5	-1.5	-10%	-3	nt
N#CCCN(Cc1cccs1)C(=O)c1ccc(Cl)cc1	nt	2.2	-12%	-10	nt

(further entries)
SMILES	Arbovirus anti	RecA splice inh	Mtb H37Rv	Mtb bLac sens	YopH inh	others
O=C(CCN1C(=O)/C(=C\c2ccccc2)SC1=S)NNC(=O)c1ccccc1O	nt	1.4	nt	-5	nt
Nn1c(SCC(=O)N2CCCc3ccccc32)nncc1=O	8	-0.9	6%	-5	nt
Cc1ccccc1NS(=O)(=O)c1ccc(C(=O)N2CCCCCC2)cc1	nt	-2.1	nt	-4	nt
Cc1ccc(C(=O)NC2(C(Cl)Cl)N=C(c3ccccc3)N=C2N)cc1 (centres undefined)	0	-0.3	7%	-1	nt
Cc1cc(C)c2c(c1)/C(=c1/sc3n(c1=O)CN(c1ccccc1)CN=3)C(=O)N2	nt	1.7	nt	27	nt
Cc1nc(-c2nnc(SCC(=O)Nc3cc(Cl)cc(Cl)c3)n2C)cs1	nt	7.1	-6%	-6	nt
COc1ccc(S(=O)(=O)NCCc2ccc(F)cc2)cc1	3	2.9	14%	-2	-33
CCCN(Cc1ccccc1)C(=S)Nc1cccc(C(F)(F)F)c1	-3	3.3	1%	5	-31
COc1cc(/C=N/NC(=O)CNc2n[nH]c(=O)[nH]c2=O)ccc1O	-5	-9.5	-3%	-1	-27
CC(=O)Nc1ccc(S(=O)(=O)N2CCN=C2C)cc1	-1	-1.8	-4%	-2	-18
COc1cccc(C(=O)CSc2nccn2C)c1	nt	-0.3	nt	0	nt
Cc1cc(C)c(O)c(C2(O)C(=O)c3ccccc3C2=O)c1	nt	0.9	5%	2	nt
O=C(NCC(c1cccs1)N1CCOCC1)c1cc(S(=O)(=O)N2CCOCC2)c(Cl)cc1Cl (centres undefined)	nt	1.3	nt	-12	nt
O=C(NCCc1ccccc1)C1CCN(c2ncccn2)CC1	10	-2.5	4%	-2	nt
CCn1c(=O)c([N+](=O)[O-])c(N2CCN(Cc3ccc4c(c3)OCO4)CC2)c2ccccc21	nt	nt	-1%	50	nt

Already shown: entries from further up.
SMILES	Arbovirus anti	RecA splice inh	Mtb H37Rv	Mtb bLac sens	YopH inh	others
Cc1nc(-c2nnc(SCC(=O)Nc3cc(Cl)cc(Cl)c3)n2C)cs1	nt	7.1	-6%	-6	nt
COc1ccc(S(=O)(=O)NCCc2ccc(F)cc2)cc1	3	2.9	14%	-2	-33
CCCN(Cc1ccccc1)C(=S)Nc1cccc(C(F)(F)F)c1	-3	3.3	1%	5	-31
COc1cc(/C=N/NC(=O)CNc2n[nH]c(=O)[nH]c2=O)ccc1O	-5	-9.5	-3%	-1	-27
CC(=O)Nc1ccc(S(=O)(=O)N2CCN=C2C)cc1	-1	-1.8	-4%	-2	-18
COc1cccc(C(=O)CSc2nccn2C)c1	nt	-0.3	nt	0	nt

(list continues)
SMILES	Arbovirus anti	RecA splice inh	Mtb H37Rv	Mtb bLac sens	YopH inh	others
CCOC(=O)C1CCN(CCC(=O)Nc2ccc(C)cc2)CC1	0	-0.7	-8%	1	nt
Cc1ccc(N(CC(=O)NCc2ccc(F)cc2)S(=O)(=O)c2cccs2)cc1	2	0.6	2%	-3	-21
COc1ccccc1N1CCN(C(c2ccccc2)c2nnnn2CCc2ccccc2)CC1 (centres undefined)	2	9.0	0%	-1	-1
COc1ccc(C)cc1S(=O)(=O)Nc1ccc2c(c1)OCO2	-2	-1.5	-2%	-7	nt

This is a subset, so the mix of outcomes need not match the whole.
